From PubChem
hNpr1 antagonist: antagonists of human natriuretic peptide receptor Npr1; Potency, µM (top dose mostly 46.3 µM), for the others: top-dose activity change, negative = inhibition, actives largely listed as inhibitors; P16066; HEK293 hNpr1 GloSensor cGMP, ANP-stimulated luminescence; actives 1.6% (n = 76,000); active = well fitted inhibition curve with a large enough effect; inconclusive = small, poorly fitted or top-dose-only effect; inactive = no such curve, though single readings can be large or run the other way;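 note: nearly all actives have a fitted effect of over 60% in size; nearly all hits also lower the signal before the agonist is added; a reference antagonist and vehicle were the controls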
Target sequence (P16066 whole entry, looked up): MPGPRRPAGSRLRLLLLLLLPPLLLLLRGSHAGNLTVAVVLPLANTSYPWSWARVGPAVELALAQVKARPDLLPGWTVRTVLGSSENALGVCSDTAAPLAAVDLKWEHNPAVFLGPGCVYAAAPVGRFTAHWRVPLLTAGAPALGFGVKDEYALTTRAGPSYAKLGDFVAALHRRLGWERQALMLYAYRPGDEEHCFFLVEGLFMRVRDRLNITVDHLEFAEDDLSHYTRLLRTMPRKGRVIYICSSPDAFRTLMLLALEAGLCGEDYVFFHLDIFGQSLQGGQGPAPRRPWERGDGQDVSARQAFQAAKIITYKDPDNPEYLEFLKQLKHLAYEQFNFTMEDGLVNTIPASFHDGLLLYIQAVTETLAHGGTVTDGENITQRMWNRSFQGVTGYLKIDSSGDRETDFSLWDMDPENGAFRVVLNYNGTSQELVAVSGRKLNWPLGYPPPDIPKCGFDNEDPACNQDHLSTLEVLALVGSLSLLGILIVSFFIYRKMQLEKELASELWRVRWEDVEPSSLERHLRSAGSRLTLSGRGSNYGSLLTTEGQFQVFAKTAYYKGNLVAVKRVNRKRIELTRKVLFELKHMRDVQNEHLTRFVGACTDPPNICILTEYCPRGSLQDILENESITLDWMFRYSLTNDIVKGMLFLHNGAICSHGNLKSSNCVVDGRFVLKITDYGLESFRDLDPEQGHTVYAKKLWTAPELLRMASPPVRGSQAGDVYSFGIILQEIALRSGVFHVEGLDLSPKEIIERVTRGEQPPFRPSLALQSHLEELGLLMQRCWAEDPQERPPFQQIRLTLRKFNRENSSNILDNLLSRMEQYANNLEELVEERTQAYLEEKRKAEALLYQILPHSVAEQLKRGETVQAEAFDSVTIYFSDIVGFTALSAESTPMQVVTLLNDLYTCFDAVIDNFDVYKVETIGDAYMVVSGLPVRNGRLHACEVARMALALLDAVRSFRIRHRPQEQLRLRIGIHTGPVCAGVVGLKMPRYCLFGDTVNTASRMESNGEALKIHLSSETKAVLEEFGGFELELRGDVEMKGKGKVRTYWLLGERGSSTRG
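HEK293 cells stably expressing human Npr1 and cGMP GloSensor pGS-40F, loaded 2 h with 2% GloSensor reagent, given compound 30 min at room temperature. Luminescence read before and 20 min after 0.1 nM hNppA.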
* hit, by the source's call; ? = inconclusive; [ ] = dose if it differs, or a comment. % is set by controls: 0 for no effect and ±100 for the full control effect; potency is the fitted concentration of half-maximal effect.

SMILES | hNpr1 antagonist
O=C(NCCN1CCCCC1)[C@H]1C[C@@H](O)[C@H](O)[C@@H]2N=C(Nc3ccc4c(c3)OCO4)S[C@@H]21 | 2%
O=C(NC(C(=O)NCc1ccccc1)C1CCN(C(=O)c2ccc(F)cc2)CC1)c1ccccc1 (stereo unspecified) | 5%
CCOC(=O)CCNC(=O)N1CCc2c(nc(-c3ccc(F)cc3)[nH]c2=O)C1 | -10%
COCc1noc([C@@H]2CN(Cc3ccccc3F)C[C@H]2COC)n1 | 2%
O=S(=O)(Cc1ccccc1)N1CCCC(Cc2noc(-c3cnccn3)n2)C1 (stereo unspecified) | 0%
COC[C@]1(O)CCN(C(=O)c2ccccc2C(F)(F)F)CC1(C)C | 0%
CCOc1ccccc1NC(=O)NCCc1ncc(C)n1CCOC | 5%
O=C1NC2(CCCN(C(=O)c3ccc(C(F)(F)F)cc3)C2)COc2ccccc21 (stereo unspecified) | -26%
CCc1cc(CN(C)C(=O)c2oc3cc(OC)ccc3c2C)on1 | 4%
COc1ccc(Cl)cc1NC(=O)CCC1CCCN(C(=O)c2ccnn2C)C1 (stereo unspecified) | -16%
CCN(CC)C(=O)CN(C)Cc1ccc(=O)n(CC)c1 | 4%
c1ccc2sc([C@H]3CCN(C4CCC4)C3)nc2c1 | 22µM*
C[C@@H](NC(=O)c1cnccn1)c1onc(-c2cccnc2)c1C(=O)O | -1%[70.6 µM]
CCN(C1CCOCC1)C1CN(C(=O)c2cccnc2)C1 | 1%
COc1ccc(OCC(=O)NC2CCN(c3cc(-c4ccccc4)[nH]n3)CC2)cc1 | -27%
O=C(O)CC[C@@H]1CN(c2nnnn2-c2ccccc2)CC[C@@H]1N1CCOCC1 | 2%
COc1ccc(C(=O)N2CC[C@@H]3COCCN(Cc4cccnc4)[C@@H]3C2)c(OC)c1 | -2%
CC(C)CN1C(=O)c2cccn2CC1C(=O)NCC1CCN(Cc2cccc(F)c2)CC1 (stereo unspecified) | -11%
C/C=C/CN1C[C@@H](NC(=O)c2cccc(N(C)C)c2)C[C@H]1C(=O)NCC | 7%
O=C(NCc1nnc2ccc(-c3ccccc3)nn12)c1ccccc1Cl | 4%
COCCC1(NS(C)(=O)=O)CCN(C(=O)c2ccc(C)nc2)CC1 | -2%
C=CCOc1cccc(C(=O)N2CC[C@@](O)(C3CCOCC3)[C@H](C)C2)c1 | -17%
Cc1ccc2c(c1)N1C(=O)OC[C@@H]1CCN(C)C2 | 0%[70.6 µM]
Cc1ccc(-c2nc(CC(=O)Nc3ccc4c(c3)C(=O)N3CCC[C@H]3C(=O)N4)cs2)cc1 | 1%

5 entries from above in another layout:
hNpr1 antagonist,mol
-2%,COCCC1(NS(C)(=O)=O)CCN(C(=O)c2ccc(C)nc2)CC1
1%,Cc1ccc(-c2nc(CC(=O)Nc3ccc4c(c3)C(=O)N3CCC[C@H]3C(=O)N4)cs2)cc1
-27%,COc1ccc(OCC(=O)NC2CCN(c3cc(-c4ccccc4)[nH]n3)CC2)cc1
-17%,C=CCOc1cccc(C(=O)N2CC[C@@](O)(C3CCOCC3)[C@H](C)C2)c1
1%,CCN(C1CCOCC1)C1CN(C(=O)c2cccnc2)C1

The list continues.
SMILES | hNpr1 antagonist
Cc1ccc(-n2cc(CN3CCC(CCO)CC3)c(-c3cccc(C)c3)n2)cc1 | -13%
CCCCNC(=O)Cc1csc2nc(C)c(-c3cc(C)n(-c4ccccc4CC)n3)c(=O)n12 | -1%
COc1cccc(CN2CC3(C2)C(=O)N(Cc2ccccc2)C(=O)[C@@H]2C[C@@H](O)CN23)c1 | -1%[70.6 µM]
COCc1cccc(C(=O)NC2CC(c3nnc(CN(C)C)n3C)C2)n1 (stereo unspecified) | 3%
COc1ccc(NC(=O)c2ccc(-c3ncc4cnc(C5=CCOCC5)cn34)cc2)cn1 | -16%[70.6 µM]
CC(C)(C)c1csc(NC(=O)C2CC(=O)N(c3n[nH]c4cccc(F)c34)C2)n1 (stereo unspecified) | -18%
Cc1ccc(CNC(=O)NCC2Cn3cccc3CN2C)cc1 (stereo unspecified) | -17%
COc1cccc(-c2cc(C3CCN(C(=O)Nc4ccccc4OC)CC3)[nH]n2)c1 | -15%
COc1ccc(CCC(=O)NCc2nnc3c(-c4nc(C)no4)cccn23)cc1 | -1%
Cc1c(C(=O)N(C)Cc2cc(-c3ccccc3)no2)oc2c(F)cccc12 | ?
Cc1nnc([C@H]2CCN(c3ccc(C#N)cn3)C2)o1 | 9%[70.6 µM]
O=C(O)C[C@@H]1CCN(C(=O)c2ccc(C(F)(F)F)cc2)C[C@@H]1CCN1CCN(c2cccc(C(F)(F)F)c2)CC1 | -3%
Cc1noc(-c2cn(C3CCCN(C(=O)c4ccc(Cl)cc4)C3)nn2)n1 (stereo unspecified) | -4%
COc1ccc(-c2cc(CC3(NCc4ccc(C)o4)COC3)no2)cc1 | -19%[70.6 µM]
Cc1cnn(CCC(=O)N2CCC3(CC2)CN(Cc2ccccc2)CC3CO)c1 (stereo unspecified) | 1%
O=C(c1nnc(CNCCN2CCCC2)n1-c1ccccc1)N1CCC[C@@H]1C(c1ccccc1)c1ccccc1 | -8%
COc1ccc(CNC(=O)[C@H]2CCC[C@H]2NC(=O)c2cnc(C)cn2)cc1 | -2%
CCn1nccc1C(=O)N1CC[C@@H]2CN(Cc3ccccc3)[C@@H]2C1 | -3%
Cc1ccsc1CN1CCn2c(nnc2[C@@H]2C[C@@H](O)CN2Cc2cccnc2)C1 | 0%
CNC(=O)[C@@H]1CN(C(=O)CCc2cc(OC)no2)C[C@H]1c1nc(C)no1 | 3%
CCCc1nnc(C[C@@H]2C[C@@H](C(C)C)[C@H](CNc3cccnc3)C=C2C)o1 | -9%[70.6 µM]
Cc1ccc(C(=O)N2CC[C@H](CO)[C@H](NC(=O)C3CC3)C2)cn1 | 17%
CN(C1CCOCC1)C1CCN(C(=O)C2CCCCC2)CC1 | 0%
COc1ccc(-c2cnc([C@@H]3COCCN3Cc3ccncc3)[nH]2)cc1 | -16%[70.6 µM]
NC(=O)C1CCC(=O)N1C1CCNCC1 (stereo unspecified) | 0%
CCNC(=O)CC1=CSC2=NC(C)=C(C(=O)Nc3ccccc3)C(c3ccc(F)cc3)N12 (stereo unspecified) | ?
CN[C@@H](C)C(=O)N1CCC(c2cc(N3CCOCC3)nc(C)n2)CC1 | 4%
COc1ccc(CN2Cc3[nH]nc(-c4ccc(C(=O)N5CCOCC5)cc4)c3CC2=O)cc1 | -7%
CC1=C[C@@H](CNC(=O)c2cccc(F)c2)[C@H](C(C)C)C[C@H]1CC(=O)NCc1cccnc1 | -13%
Cc1ccc(C(=O)N2CCC3(CC2)N(c2ccccc2)C(=O)CS3(=O)=O)cc1 | 0%
Cc1ccsc1C(=O)N1CCCn2cc(-c3ccccc3)nc21 | -2%
O=C(CC1CC1)NC1CCCc2nc(-c3ccccc3)ncc21 (stereo unspecified) | 3%
Cc1ccc(-c2nnc3ccc(Nc4cccc(N(C)C)c4)nn23)nc1 | 6%[70.6 µM]
CC(=O)Nc1cccc(-c2nc(-c3c(C)noc3C)cc3cc(C)oc23)c1 | 6%[70.6 µM]
CCn1c2c(c(=O)n1-c1ccccc1)CCN(C(=O)Cc1ccccc1)C2 | 0%[70.6 µM]
CN(CC1CCOC1)S(=O)(=O)c1ccc(Cl)s1 (stereo unspecified) | -9%
O=C(NC1CCCCC1)[C@@H]1C[C@@H](O)CN1C1CCN(C(=O)c2ccncc2)CC1 | 0%
CC(=O)N1CC(CO)C2(CCN(Cc3c[nH]c4ccccc34)CC2)C1 (stereo unspecified) | 2%
CNC(=O)[C@@H](c1ccccc1F)N1CCC[C@H]1C(=O)NCC1CC1 | -1%[70.6 µM]
C=CCN1CCN(C(=O)[C@@]23CCCC[C@H]2N(CCC(C)C)C(=O)CC3)CC1 | 0%
Cc1nc(CN2CC3(CCN(C)C3)c3cc(C(=O)NCc4ccccc4)ccc32)cs1 (stereo unspecified) | -7%[70.6 µM]
O=C(CCC[C@@H]1[C@H]2CCCN3CCC[C@@H](CN1C(=O)C1(c4ccccc4)CC1)[C@@H]23)NCC1CC1 | 2%
Cc1ccc2c(C(=O)N3CCN(C4CCCCC4)CC3)cc(NC(=O)C(C)C)cc2n1 | 0%
CC(C)NC(=O)N1Cc2[nH]cnc2C[C@H]1c1nc(-c2ccccc2)no1 | -1%[70.6 µM]
COc1cccc(CNC(=O)C2CCN(C(=O)c3ncn4c3COC(c3ccc(F)cc3)C4)CC2)c1 (stereo unspecified) | 1%
Cc1nn(C)c(C)c1S(=O)(=O)N1CCCC(CO)(Cc2ccccc2)C1 (stereo unspecified) | 1%
Cc1nc(-c2ccccc2)n(Cc2nc(-c3ccc(OC(C)C)cc3)oc2C)c(=O)c1CCO | -3%
COc1ccccc1NC(=O)Cn1nc2c(cc1=O)CCCC2 | 5%
O=C(O)c1nn(CC2CC2)c2c1CN(C(=O)c1nccc3ccccc13)CC2 | -2%
CCOc1cccc(CN2CCC3(CCNCC3)C2)c1O | 2%
Cc1ccccc1S(=O)(=O)N1CCC2(CC1)CC(OCC1CC1)CCO2 (stereo unspecified) | -14%
O[C@@H]1C[C@@H](c2nc(-c3cccnc3)no2)N(Cc2ccccc2)C1 | -1%[70.6 µM]
CN1c2cc(C(=O)NCc3ccc(F)cc3F)ccc2C(=O)N2CCCCC21 (stereo unspecified) | 5%
CC(=O)Nc1ccc(S(=O)(=O)N[C@H]2CO[C@H]3[C@@H]2OC[C@@H]3Nc2nccc(C(C)(C)C)n2)cc1 | 16µM*
COc1ccccc1NC(=O)O[C@H]1COCCN(c2nc3ccccc3s2)C1 | -8%[70.6 µM]
Cc1ccccc1-n1nc(C)c(CCC(=O)NCC2CCCO2)c1Oc1ccccc1F (stereo unspecified) | -13%
CC1(C(=O)NC2CC2)CCCc2cnc(Nc3ccccc3)nc21 (stereo unspecified) | 1%[70.6 µM]
Cc1cn2nnc(C(=O)NCC3CCCCC3)c2c(=O)[nH]1 | 14%
Cc1cccc(C(=O)N2CCCC3(C2)NC(=O)N(Cc2ccccc2)C3=O)c1 (stereo unspecified) | -10%
Cc1ccc(C(=O)N2CC(N(C)c3ccccc3C)C2)cc1 | -1%[70.6 µM]

Structures listed above shown as hits in hNpr1 antagonist.
SMILES | hNpr1 antagonist
c1ccc2sc([C@H]3CCN(C4CCC4)C3)nc2c1 | 22µM*
CC(=O)Nc1ccc(S(=O)(=O)N[C@H]2CO[C@H]3[C@@H]2OC[C@@H]3Nc2nccc(C(C)(C)C)n2)cc1 | 16µM*

Continued.
SMILES | hNpr1 antagonist
O=C(NCCc1ccc(F)cc1)c1cc(CN2CCOCC2)on1 | 7%
Brc1ccc(CN2CCC(c3nc4ncccc4[nH]3)C2)cc1 (stereo unspecified) | 0%
OCC1CCCCN1CCNc1nccc(-c2cccnc2)n1 (stereo unspecified) | 7%
CN1C(=O)[C@H]2CN(Cc3cccc(C#N)c3)C[C@H]2C1=O | -17%
Cc1cccc([S+](=O)([O-])N(C)Cc2cccn2C)c1 | 16%[70.6 µM]
Cc1ccncc1-c1c(C)nn2c1N(C(=O)Cc1ccc(Cl)cc1)CCC2 | -7%[70.6 µM]
Cc1cc(C)cc(NC(=O)Cn2ccn3nc4c(c3c2=O)CCCC4)c1 | 1%
Cc1noc(C2CC3(CCN(C(=O)Cn4c(=O)oc5ccccc54)CC3)CN2C)n1 (stereo unspecified) | -1%
Cc1ccc(-c2cc(N3CCCN(C(=O)c4ccccc4C)CC3)n[nH]2)cc1C | ?
Cc1cnc(C(=O)N[C@@H]2CCC[C@@H]2C(=O)NCc2cccs2)cn1 | 0%
COc1ccc(Cc2ncc3c(n2)CN(C(=O)c2ccc(OC)c(O)c2)C3)cc1 | -5%
COC(=O)[C@@H]1Cc2ncn(Cc3ccc(OC)cc3)c2CN1S(=O)(=O)c1ccc(F)cc1 | 3%
CCOc1ccccc1NC(=O)Cn1c(N2CCOCC2)nc(COC)cc1=O | 1%
Cc1cccc(C(=O)N2CCC(Cc3nc(C(C)C)no3)CC2)c1 | -23%
CCn1cc(C(=O)NC2CCc3nnc(C4CC4)n3CC2)cn1 (stereo unspecified) | 9%
Cc1noc([C@@H]2CN(Cc3ccc[nH]3)C[C@H]2CO)n1 | 7%
Cn1c(CN2CCOC[C@H]2c2ncc(-c3ccc(Cl)s3)[nH]2)nc2ccccc21 | ?
CCCC(=O)Nc1ccc(NC(=O)C2CC(=O)N(CC(C)C)C2)cc1OC (stereo unspecified) | -3%
COc1ccc(-c2nnc([C@H]3CCN(S(=O)(=O)Cc4ccccc4)C3)o2)cc1 | -3%[70.6 µM]
COc1ccc(C(=O)N2CCN(c3cc(-c4ccccc4)[nH]n3)CC2)c(OC)c1 | ?
COC(=O)[C@H](Cc1ccc(OC)cc1)NC(=O)[C@@H]1CNCCN1S(=O)(=O)c1ccccc1 | -2%
COc1cccc(C(=O)N2CCC(N3C[C@H](O)C[C@H]3C(=O)NCc3cc(F)ccc3F)CC2)c1 | 1%
NCCO[C@H]1C[C@@H](O)C12CCN(S(=O)(=O)c1ccc(F)cc1)CC2 | 0%
CCN(CC)C(=O)C[C@@H]1CCNC[C@@H]1Cc1cc(-c2ccccn2)on1 | -4%[70.6 µM]
COc1ccccc1-c1ccnc(N[C@H]2CO[C@H]3[C@@H]2OC[C@@H]3NS(=O)(=O)c2cccc3cccnc23)n1 | 6%
COc1ccc2[nH]c(C(=O)N3C[C@@H](CO)[C@H](c4ccncc4)C3)cc2c1 | 6%
CS(=O)(=O)N1CCC(OC2CCN(C(=O)NCCc3ccccc3)CC2)CC1 | -2%
Cc1nc2n(n1)C(C(=O)Nc1ccccc1)CC(=O)N2 (stereo unspecified) | 4%

Two of these compounds, set out differently:
| hNpr1 antagonist | compound |
| --- | --- |
| 6% | COc1ccccc1-c1ccnc(N[C@H]2CO[C@H]3[C@@H]2OC[C@@H]3NS(=O)(=O)c2cccc3cccnc23)n1 |
| 6% | COc1ccc2[nH]c(C(=O)N3C[C@@H](CO)[C@H](c4ccncc4)C3)cc2c1 |

An excerpt; rates above refer to the full screens.
